Compound activity: PubChem BioAssay, National Center for Advancing Translational Sciences (NCATS)
Prx2 Sm inh = Schistosoma mansoni Prx2 inhibition | Potency, µM | 65,000 compounds, 0.07% hits | S. mansoni Prx2 activity coupled to TGR/GSH (TGR is thioredoxin glutathione reductase), NADPH fluorescence loss, qHTS; some inactives read as strong as hits; active means full or partial inhibition curve with a strong effect at the top dose; inconclusive means weaker partial or single-point curve; inactive means no accepted curve; also: series up to 57 µM; many of its hits are not listed in these tables
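Prx2 activity was followed as the loss of NADPH fluorescence (ex 365/em 450 nm), read every 30 sec for 8 min after H2O2 start. The enzyme mix (50 nM Prx2, 25 nM TGR, GSH, NADPH; pH 7.4 phosphate buffer) was incubated with compound for 15 min at room temperature first.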
Anthrax LT inh = anthrax lethal toxin internalization inhibition; Cells, anthrax lethal toxin internalization, FRET ratio (460/530); 70,000 compounds, 0.67% hits; Potency, µM (titrated, usually from 40 µM), for the others: at the top dose activity change, negative = inhibition, hits mostly inhibitors; active = well fitted falling ratio curve with the 530 nm signal flat; inconclusive = other ratio curves, or a change in one channel alone; inactive = flat curves in the ratio and both channels; the % refers to the ratio; also: % is scaled to controls: 0 for no effect and ±100 for the full control effect; nearly all actives have a fitted effect of over 50% in size; tested in ME-180 cells; beta-lactamase reporter
Active calls of the source: *; ? = inconclusive; . = no result given; & = joins results of further samples; [ ] = remark or other dose. Potency is read from the fitted curve at half-maximal effect.

Each structure is followed by: Prx2 Sm inh | Anthrax LT inh
- O=C(O)c1cn(-c2ccccc2)nc1-c1ccncc1
    . | -7%
- Cc1cc(OCC(=O)N2CCCC2)ccc1Cl
    . | 2%
- O=C(CSc1nnnn1-c1ccc2c(c1)OCCO2)OC1CCCCC1
    >57 | ?
- c1cncc(CNCCN2CCNCC2)c1
    >57 | -4%[8 µM]
- CCCc1nc(SCC(=O)Nc2ccccc2OC)c2c(=O)n(C)c(=O)n(C)c2n1
    >57 | -23%
- COc1cccc(Cn2c(=O)c(-c3ccccc3)nc3cnc(N4CCNCC4)nc32)c1
    >11 | ?
- O=C(CSc1nnc(-c2ccco2)n1Cc1ccccc1)NC(=O)NCc1ccco1
    >57 | 9%
- COC(=O)C1C2C=CC3(CN(c4ccc(Cl)c(F)c4)C(=O)C13)O2 (centres undefined)
    >57 | -3%
- CSc1nc(NC2CCCC2)c([N+](=O)[O-])c(NC2CCCC2)n1
    >57 | ?
- Cc1cccc2cc(CN(CC3CCCO3)C(=O)c3cccnc3)c3nnnn3c12 (centres undefined)
    >57 | -17%
- Cc1c(NC(=O)Nc2ccc3c(c2)OCO3)c(=O)n(-c2ccccc2)n1C
    >57 | 0%
- CCC[C@H](Sc1nc(N)nc2nc[nH]c12)C(=O)O
    >57 | -3%[8 µM]
- Cc1ccc(N2CCN(C(=O)N3CCCC3)CC2)cc1Cl
    >57 | -17%
- C/C=C/C=[N+](\[O-])C(C)/C(=N/O)c1ccc(F)cc1 (centres undefined)
    >57 | 7%
- Oc1ccccc1-c1cc(C(F)(F)C(F)F)nc(-c2ccccc2)n1
    >57 | ?
- CN1CCN(c2ncnc3ccc(-c4ccoc4)cc23)CC1
    >57 | -13%
- CCOCCCn1c(=S)[nH]c2cc(C(=O)NCCOC)ccc2c1=O
    >57 | 5%
- O=C(NCCN1CCc2ccccc2C1)Nc1ccc(F)cc1
    >57 | ?
- CC(=O)N=C1SC2CS(=O)(=O)CC2N1c1ccccc1Cl (centres undefined)
    >57 | 5%
- COCC(=O)N1CCC2(CC1)CCN(c1ccc(-c3ccccc3)cc1)CC2
    >57 | ?
- COC(=O)[C@@]1(Cc2ccc(OC)cc2)[C@H]2c3cc(C(=O)N4CCCC4)n(CCF)c3C[C@H]2CN1C(=O)c1ccccc1
    >57 | 8%
- C[C@H](N)CN1CCc2ccc(Br)cc21
    >57 | -6%
- O=C(C1CC(c2ccccc2O)=NO1)N1CCCC1 (centres undefined)
    >57 | -21%
- CCS(=O)(=O)N1CCC(C(=O)NCc2ccc(F)cc2Cl)CC1
    >57 | 13%
- Cc1cc(C)nc(SCC(=O)Nc2ccc(Br)cn2)n1
    >57 | ?
- COc1ncc2ncc(=O)n(Cc3cccs3)c2n1
    >57 | -9%
- Cc1cc(Oc2ccc(-c3ccccc3)cc2)nc(N2CCOCC2)n1
    >57 | -22%
- NC1=NC(c2ccc(F)cc2)n2c(nc3ccccc32)N1 (centres undefined)
    >57 | -4%
- COc1ccc(C2CC(=O)C3=C(C2)Nc2ncnn2C3c2ccccc2C)c(OC)c1 (centres undefined)
    >57 | 6%
- O=C(Cn1c(=O)oc2cc(S(=O)(=O)N3CCCC3)ccc21)NC1CCCc2ccccc21 (centres undefined)
    >57 | ?
- COc1cc(CNC(=O)CCCCCCC(C)C)ccc1O
    >57&>57 | ?
- O=C(CCSc1nnc2scc(-c3ccccc3)n12)NCc1ccc2c(c1)OCO2
    >57 | ?
- CCC(=O)Nc1ccc(C(=O)Nc2ccc3c(c2)OCO3)cc1
    >57 | -3%
- Cc1oc(-c2ccc(Cl)cc2)nc1CN1CCC(C(=O)NCc2ccco2)CC1
    >57 | .
- COC(=O)[C@H](Cc1ccccc1)NC(=O)N1CCN(Cc2ccccc2)CC1
    >57 | 9%
- COc1ccccc1CN1CCCC2(CCN(S(=O)(=O)c3ccccc3)CC2)C1
    >57 | ?
- COCCNC(=O)C1c2ccccc2C(=O)N(CCOC)C1c1ccc(F)cc1 (centres undefined)
    >57 | -2%
- N#Cc1cccc(-c2nc(Nc3ccccc3)c3ccccc3n2)c1
    >57 | ?
- COc1cc(OC)cc(C(=O)N2c3ccc(F)cc3CCC2C)c1 (centres undefined)
    >57 | ?
- O=c1cc(CSc2ccccn2)nc(N2CCN(c3ccccc3)CC2)[nH]1
    >57 | 9%
- COc1ccc(CNC(=O)Cc2nn(C)c(=O)c3ccccc23)cc1
    >57 | -9%
- Cc1ccc(C)c(NC(=O)CSc2nnc(-c3ccco3)o2)c1
    >57 | 9%
- COC(=O)C1=C(C)N(C)C(=O)NC1c1ccc(C)cc1 (centres undefined)
    >57 | -12%
- COc1ccc(CN2C(=O)c3cccnc3C2Nc2ccc(OC)c(Cl)c2)cc1 (centres undefined)
    >57 | 13%
- COc1cc(Br)c(CC(=O)O)cc1OC
    >57 | -14%
- COc1ccccc1C(=O)Nc1ccccc1SC
    >57 | .
- COC(=O)C1C(=O)C2=C(CC1C)NC(C)=C(C(=O)OC1CCCCC1)C2c1ccc(N(C)C)cc1 (centres undefined)
    >57 | 10%
- CCOC(=O)N1CCC(Nc2nc3ccccc3n3nnnc23)CC1
    >57 | ?
- CC1(C)CC(=O)c2c(Cc3ccccc3)n[nH]c2C1
    >57 | 6%
- O=C=Nc1ccc(Cl)c(Cl)c1
    . | 16µM*
- O=C(COc1ccccc1Cl)Nc1ccc(Cl)cn1
    . | -12%
- NC(=O)C1(N2CCCCC2)CCN(C(=O)CSc2nc3ccccc3o2)CC1
    >57 | 14%
- Cc1ccccc1OCC(O)Cn1c(=N)n(CCN2CCOCC2)c2ccccc21 (centres undefined)
    >57 | ?
- Cc1cccc(OCC(O)Cn2c(NCCCOC(C)C)nc3c2c(=O)[nH]c(=O)n3C)c1 (centres undefined)
    >57 | -10%
- COc1cc(CN2CCN(c3cccc(Cl)c3)CC2)cc(OC)c1OC
    >57 | -16%
- O=c1c2ccccc2nnn1CSc1ccc2c(c1)OCCO2
    >57 | -10%
- Cc1nc(SCc2cccc(F)c2)[nH]c(=O)c1C#N
    >57 | ?
- Cc1ccc2nc(-c3ccncc3)cc(C(=O)N3CCC4(CC3)OCCO4)c2c1
    >57 | 2%
- O=C(Cc1cccs1)NCCn1ccc2ccccc21
    >57 | 23%
- CCOC(=O)c1nc(C)[nH]c1C(=O)OCC
    >57 | ?

Given with each value named: four of the compounds above.
> O=c1cc(CSc2ccccn2)nc(N2CCN(c3ccccc3)CC2)[nH]1
  Prx2 Sm inh: >57; Anthrax LT inh: 9%

> COc1ccccc1C(=O)Nc1ccccc1SC
  Prx2 Sm inh: >57; Anthrax LT inh: .

> COC(=O)C1=C(C)N(C)C(=O)NC1c1ccc(C)cc1 (centres undefined)
  Prx2 Sm inh: >57; Anthrax LT inh: -12%

> Cc1cc(Oc2ccc(-c3ccccc3)cc2)nc(N2CCOCC2)n1
  Prx2 Sm inh: >57; Anthrax LT inh: -22%

Carrying on:
Each structure is followed by: Prx2 Sm inh | Anthrax LT inh
- O=C(Nc1ccc(-n2cnnn2)cc1)C1CCCN1C(=O)NC1CCCCC1 (centres undefined)
    >57 | -15%
- COCCn1c(SCC(=O)c2ccc3c(c2)OCCO3)nnc1-c1ccoc1C
    >57 | -3%
- O=C(NCc1cccs1)C1CCN(S(=O)(=O)c2cccc3nsnc23)CC1
    >57 | 5%
- Cn1c(=O)c2c(ncn2CC(=O)Nc2ccc(Cl)cc2Cl)n(C)c1=O
    >57 | -3%
- COc1nc2c(C)cccc2cc1-c1noc(-c2ccncc2)n1
    >57 | 5%
- CC1(C)OC(=O)C(=C2CCCN2)C(=O)O1
    . | -14%
- COCCOC(=O)C1=C(C)NC2=C(C(=O)CC(C)(C)C2)C1c1ccc2c(c1)OCO2 (centres undefined)
    >57 | 13%
- O=C(c1cc(C(F)(F)F)cc(C(F)(F)F)c1)N1CCC2(CC1)CCN(c1ccccn1)CC2
    >57 | -4%
- CCOC(=O)CSc1nc2c(c(=O)n(C)c(=O)n2C)n1CCCc1ccccc1
    >57 | 3%
- COc1ccc(C(=O)Nc2ccc(S(=O)(=O)NC(C)=O)cc2)cc1
    . | 5%
- CCCCCNC(=O)Cc1ccc(OC)cc1
    >57 | 0%
- CN(C)/C=N/c1sccc1C(N)=O
    >57 | -4%
- COc1ccc(-c2nn(C)c(=O)c3ccccc23)cc1CNS(C)(=O)=O
    >57 | -8%
- NCCC[C@@H](CC(=O)N[C@@H]1CCNC[C@H]1C(=O)N[C@H](CC(=O)N[C@@H](CCC(=O)O)CC(=O)O)Cc1ccccc1)NC(=O)C[C@H](Cc1c[nH]c2ccccc12)NC(=O)[C@@H]1CCCC[C@H]1N
    >57 | -8%
- Cc1ccc(C(CC(=O)c2ccco2)SCCO)cc1 (centres undefined)
    >57 | -17%
- Cc1ccc(S(=O)(=O)NCCOC(=O)Nc2sc(=S)n(C)c2C)cc1
    . | -1%
- CCC(CC)C(=O)Nc1cc(C)c2c(=O)oc3ccccc3c2n1
    >57 | 11%
- CCN(Cc1ccccc1)c1ccccc1
    . | ?
- CNC(=O)COC(=O)c1cc(F)c(F)cc1Cl
    >57 | ?
- O=C(NCc1ccco1)C1CCCN(S(=O)(=O)c2cccc3nonc23)C1 (centres undefined)
    >57 | 11%
- O=C(c1cnccn1)N1CCC2(CC1)CN(Cc1ccncc1)C2
    >57 | 8%
- O=C(O)CSc1nnc(-c2ccc(S(=O)(=O)N3CCCC3)cc2)n1Cc1ccco1
    >57 | -10%
- O=C(CC1SC(=NC2CCCCC2)NC1=O)Nc1ccccc1 (centres undefined)
    >57 | -5%
- C1=C(CN2CCOCC2)COc2c1cccc2OC[C@@H]1CNCCO1
    >57 | ?
- Cc1csc2nc(CNS(=O)(=O)N(C)C)cn12
    >57 | -4%
- O=C(c1cccc(F)c1)N1CCC2(CC1)CCN(c1ccc(-c3ccccc3)cc1)CC2
    >57 | 16%
- O=C(Nc1ccc2c(c1)OCO2)c1cccc(S(=O)(=O)N2CCCC2)c1
    >57 | -6%
- O=C(Nc1ccc2c(c1)nc1n2CCOC1)c1ccccc1
    >57 | ?
- O=C1NCC(COCc2ccco2)O1 (centres undefined)
    >57 | -27%
- Cc1ccc(S(=O)(=O)N(CC(=O)NCc2ccncc2)C2CCCCC2)cc1
    >57 | -2%
- CCSc1ccc2nnc(-c3ccc(F)cc3)n2n1
    >57 | -14%
- Cc1ccc([N+](=O)[O-])cc1S(=O)(=O)N(C)C
    . | -6%
- COc1ccc(Oc2ncc3nc(-c4ccc(F)cc4)c(=O)n(C4CC4)c3n2)cc1
    >57 | -20%
- Nc1c(NCc2ccccc2)c2ccccc2oc1=O
    >57 | 0%
- C=CCC(CC=C)(C(=O)O)c1ccccc1
    >57 | -24%
- COc1ccc(N2C(=O)C3CCCN3C2c2ccccc2Cl)cc1 (centres undefined)
    >57 | -7%
- Cc1ccc(-n2c(SCC(=O)OC(C)C)nnc2-c2ccco2)cc1
    >57 | -9%
- CCOC(=O)C1CCN(C(=O)COc2ccc(S(=O)(=O)NC(C)C)cc2)CC1
    >57 | 4%
- CCOc1cccc(OCCCCN2CCOCC2)c1
    . | -2%
- O=C(Nc1nc(-c2cccs2)c(-c2ccccc2)s1)c1ccco1
    >57 | 13µM*
- Cc1cc(N/C(=N\S(=O)(=O)c2ccc(Cl)cc2)c2ccc(F)cc2)no1
    >57 | 1%
- O=C(NCC(c1cccnc1)N1CCN(c2ccccc2)CC1)OCc1ccccc1 (centres undefined)
    >57 | 1%
- COc1ccc(CC(=O)NCc2ccccn2)cc1OC
    >57 | ?
- COc1ccccc1N(CC(=O)NCc1ccccc1)S(C)(=O)=O
    >57 | ?
- N#CCSc1nnc(-c2ccc(S(=O)(=O)N3CCOCC3)cc2)n1CC1CCCO1 (centres undefined)
    >57 | -4%
- COC(=O)[C@H](CCSC)NC(=O)NCc1ccc(S(N)(=O)=O)cc1
    >57 | .
- CC(NS(=O)(=O)c1ccccc1)C(c1cccs1)N1CCN(c2ccccc2)CC1 (centres undefined)
    . | -29%
- O=C(O)c1ccccc1C(=O)Nc1ccc(S(=O)(=O)Nc2nccs2)cc1
    >57 | -10%[3.58 µM]
- COc1cc(C(=O)N2CCN(S(=O)(=O)c3ccc(C)cc3)CC2)ccc1OCc1c(C)noc1C
    >57 | 14%
- Cc1c(C(=O)N2CCCCCC2)oc2ccccc12
    >57 | -11%
- Cc1cccc(NC(=O)C2CCCN2C(=O)OCC(C)C)c1 (centres undefined)
    >57 | 12%
- CCOC(=O)N1CCC(Nc2ncnc3c2cnn3-c2ccc(Cl)cc2)CC1
    >57 | 0%
- O=C1CN(C(=O)c2ccccc2)c2ccccc2N1
    >57 | -17%
- CC(CCc1ccccc1)NC(=O)C1CCN(S(=O)(=O)N2CCCCC2)CC1 (centres undefined)
    >57 | ?
- O=C(O)c1cccc(NC(=O)c2cccc(NC(=O)C3CCCO3)c2)c1 (centres undefined)
    >57 | 7%
- CC(=O)Nc1c2c(nn1-c1ccc(C)cc1C)CSC2
    >57 | -1%
- COC(=O)c1ccc2c(=O)n(CC3CCCO3)c(=S)[nH]c2c1 (centres undefined)
    >57 | .

Some of the compounds tested; the hit share may differ from the screen's.
